From PubChem BioAssay
Sa ugtP lethal: growth inhibition of ugtP-null S. aureus, primary screen, RN4220 ugtP deletion, OD600. AID 1259309, 2017. growth inhibition, % (no concentration beside the values). 16 h; some inactives read as strong as hits. 0.54% of 330,000 active;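 active = z-score under -3 and OD600 up to 0.15 on both plates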;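 note: plate controls were untreated wells for no effect and antibiotic for full effect; wells of about 80 µL received 100 nL stock; the first replicate is given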
Mtb hypoxia inh: PubChem AID 1159583; 0.1% of 300,000 active; fluorescence inhibition, % (concentration not given with the values); M. tuberculosis hypoxia-regulated fluorescent reporter, fluorescence;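 active = 35 to 45% if threefold the growth effect, above 45% if 1.5-fold the growth effect; inactive = the rest, general growth blockers included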;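 note: wells of about 50 µL received 100 nL stock; 0% = vehicle wells and 100% = reference inhibitor wells; whole bacteria with a GFP reporter of the hypoxia response; strong numbers were not always called active; many hits fall short of the cut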
PrP UTR inh: inhibition of PrP 5' UTR reporter expression | inhibition, % (no concentration beside the values) | cell-based PrP 5' UTR mRNA reporter, plate reader | 0.35% of 340,000 active | AID 488862, 2010;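 active = every replicate at 50% or more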;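 note: 0 = median of the neutral control wells; tested in H4 reporter cells; numbers are from one replicate; inactives centre near -14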
RN4220 kill: growth inhibition of S. aureus RN4220, primary screen, OD600; AID 1259311, 2017; 0.33% of 330,000 active; 16 h; inhibition, % (no concentration beside the values);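 active = z-score of -3 or lower and OD600 up to 0.18 on both plates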;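 note: plate controls were untreated cells for no effect and reference antibiotic for full effect; stock transfer was 100 nL into about 80 µL; one replicate is shown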
BJeLR viability: MLPCN primary cell-based screen for lethality selective to Ras in HRASV12 cells. 0.17% of 300,000 active. inhibition, % (no concentration beside the values). BJeLR (HRASV12) viability, CellTiter-Glo ATP luminescence, 48 h; reference of the scale not given here;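 active = replicate mean above 50%; inconclusive = above 50% but judged a plate artefact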;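 note: 50 nL library stock added to about 25 µL; numbers are from one replicate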
Bead autofluor: compound fluorescence in toxin protease inhibitor counterscreen; compound autofluorescence counterscreen, microsphere flow cytometry; hits give high values; fluorescence intensity (concentration not given with the values); 3.1% of 360,000 active;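 active = at least 3 SD above the mean of all compounds, about 16000 in these data; inconclusive = too few beads counted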;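 note: 100 nL of 1 mM stock went into each well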
Mtb hypoxia inh growth: also measured in Mtb hypoxia inh; calls as there; growth inhibition, %; measured here: M. tuberculosis growth (absorbance);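 0% = vehicle and 100% = reference antibiotic; read after six days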
An asterisk follows results filed as active; ? = inconclusive; · = no result given. An unsorted share of the library. Share with any hit: about 4%.

Second line of a record: Mtb hypoxia inh growth	Mtb hypoxia inh	Sa ugtP lethal	RN4220 kill	PrP UTR inh	BJeLR viability	Bead autofluor
- O=C(CCN1CCCCC1)Nc1ccc(Br)cc1
→ 5	7	0	4.7	-13	-4	3287
- O=C(CN1CCN(C(=O)CNC(=O)c2ccc3c(c2)OCO3)CC1)Nc1cccc(F)c1
→ -2	4	10	6.6	·	·	·
- CC(C)=CC(=O)N1CCCc2ccccc21
→ 5	11	6	4.0	-11	3	6451
- Cc1nnc(C)c2c(C)n(Cc3ccc4c(c3)OCO4)c(C)c12
→ 15	-2	-15	6.2	-62	2	9278
- COc1ccccc1CNC(=O)CNC(=O)c1sc2ccccc2c1Cl
→ 6	8	3	3.4	-11	-4	5579
- Cc1nc(NCc2ccco2)c2c(C)c(C)sc2n1
→ -1	-9	-1	3.4	-9	25	16784*
- O=C(NCc1ccco1)c1ccccc1NC(=O)C1CC(=O)N(c2ccc(Cl)cc2)C1 (stereo not given)
→ 11	6	0	11	-22	2	3936
- C=CCn1c(SCC(=O)Nc2ccc(N3CCOCC3)cc2)nc2ccccc2c1=O
→ -5	0	5	-3.5	-17	3	5371
- Cc1cccc(NC(=O)CNC(=O)C(NC(=O)Cc2ccccc2)C(C)C)c1C (stereo not given)
→ 9	3	0	1.9	14	·	6464
- Cc1ccc(C)c(NC(=O)C(c2ccccc2)N2CCN(CC(=O)NC3CC3)CC2)c1 (stereo not given)
→ 2	-9	4	1.8	2	·	6316
- COc1ccc(NC(=O)CCCc2ccccc2)cc1OC
→ -13	-9	3	2.4	-70	-1	3914
- Cc1onc(C(=O)NN)c1C(=O)Nc1ncc(C(F)(F)F)cc1Cl
→ 5	2	8	2.2	-15	2	2659
- CCOCCCNc1nc2c(C)cccn2c(=O)c1/C=C1\SC(=S)N(CC(C)C)C1=O
→ 3	12	8	4.6	0	-19	4040
- COc1ccc(/C=N/NC(=O)c2cccc(NC(C)=O)c2)c(C(=O)O)c1OC
→ ·	·	·	·	-19	-5	2015
- CCCCN(C(=O)c1ccc(OC)c([N+](=O)[O-])c1)c1c(N)n(CCC)c(=O)[nH]c1=O
→ 3	-13	0	3.3	-9	-7	3663
- C=CCn1nnc2sc3c(c2c1=O)CCC(C)C3 (stereo not given)
→ 11	0	-8	-5.3	-43	-10	2442
- CCOc1c(C)cc2[nH]c(CCC(=O)O)nc2c1C
→ ·	·	-7	0.6	-69	11	2287
- O=c1[nH]c(=O)n(Cc2ccccc2)c(O)c1C=NCCCO
→ 6	12	1	3.4	-14	1	9769
- COc1ccc(C(C(=O)NC2CCCC2)N(C(=O)c2ccco2)c2cc3c(cc2C(C)=O)OCO3)cc1 (stereo not given)
→ 1	1	8	12	-11	-9	4623
- Clc1ccc(-c2nnnn2-c2ccc(Cl)c(Cl)c2)cc1Cl
→ -7	8	-16	0.6	-17	3	3402

Compounds from the list above that contain a COOH group (2):
Second line of a record: Mtb hypoxia inh growth	Mtb hypoxia inh	Sa ugtP lethal	RN4220 kill	PrP UTR inh	BJeLR viability	Bead autofluor
- COc1ccc(/C=N/NC(=O)c2cccc(NC(C)=O)c2)c(C(=O)O)c1OC
→ ·	·	·	·	-19	-5	2015
- CCOc1c(C)cc2[nH]c(CCC(=O)O)nc2c1C
→ ·	·	-7	0.6	-69	11	2287

Following part:
Second line of a record: Mtb hypoxia inh growth	Mtb hypoxia inh	Sa ugtP lethal	RN4220 kill	PrP UTR inh	BJeLR viability	Bead autofluor
- COc1ccc(CCNC(=O)C2=CC=CN3CCS(=O)(=O)N=C23)cc1
→ 3	4	2	0.2	-40	·	?
- Cc1ccc(N(CCC#N)C(=O)COC(=O)C2CCN(c3ccc(C(F)(F)F)cn3)CC2)cc1
→ -6	1	9	-4.6	-23	-5	5863
- CC(C)C(c1nnnn1Cc1ccc(F)cc1)N1CCN(Cc2ccc3c(c2)OCO3)CC1 (stereo not given)
→ ·	·	-1	0.6	-6	5	2221
- O=C(/C=C/c1cccs1)NCc1cccnc1
→ ·	·	·	·	-11	1	2009
- CCC1CCC2(CC1)NC(=O)N(CC(=O)Nc1ccc(OC)cc1)C2=O (stereo not given)
→ 0	1	4	1.9	-11	·	·
- CCN(C(=O)CN1CCN(c2ccccc2F)CC1)c1c(N)n(Cc2ccccc2)c(=O)[nH]c1=O
→ 9	20	6	-3.6	-18	4	4549
- COC(=O)c1ccc(COc2ccccc2C=NNS(=O)(=O)c2ccccc2)cc1
→ 7	2	-2	12	·	·	·
- O=C(Oc1ccc(Cl)c2cccnc12)N1CCCCC1
→ 10	19	-3	4.3	-30	-3	11899
- Cc1ccc(S(=O)(=O)N2CCOCC(=O)NCCOCCNC(=O)COCC2)cc1
→ 8	16	-2	-17	-6	3	3032
- CC(C)(C)NC(=O)c1ccc2c(c1)CCO2
→ 22	18	9	4.5	-10	-5	4483
- Cc1ccc(OCCNC(=O)C(=O)NCc2ccco2)cc1
→ 11	4	1	3.2	-9	-4	2406
- Cn1c(=O)cc(C(=O)NN=Cc2ccc(Cl)cc2)[nH]c1=O
→ -6	-5	1	-0.8	·	·	·
- CCOC(=O)C1CCN(c2ccc([N+](=O)[O-])c(C(C)=O)c2)CC1
→ 3	20	7	5.7	1	5	3600
- Cc1ccc(-n2c(C)cc(C(=O)OCC(=O)N(C)C3CCS(=O)(=O)C3)c2C)cc1 (stereo not given)
→ ·	·	-9	-4.1	-5	6	3507
- O=Cc1cc(Cl)ccc1OCCN1CCC(Cc2ccccc2)CC1
→ 4	12	10	-1.0	-14	0	3368
- O=C(CCC(=O)N1CCN(S(=O)(=O)c2ccc(Cl)cc2)CC1)NC1CCCc2ccccc21 (stereo not given)
→ ·	·	-4	-7.9	-14	4	3270
- COc1cc(-c2noc(CCCC(=O)Nc3ccc(C(N)=O)cc3)n2)cc(OC)c1OC
→ 4	0	3	2.2	·	-19	5575
- Cc1onc(-c2ccccc2)c1C(N)=O
→ 9	7	4	0.8	-27	-1	3134
- CCSc1nnc(NC(=O)CCNC(=O)c2ccccc2Cl)s1
→ -4	2	2	0.2	-17	·	9082
- O=C(NCCN1C(=O)C2C3C=CC(C3)C2C1=O)Nc1ccccc1O (stereo not given)
→ ·	·	5	-1.4	-21	-13	5143
- O=C(COc1ccc(S(=O)(=O)N2CCc3ccccc32)cc1Cl)NCc1ccccn1
→ -2	16	5	4.6	-54	-3	10879
- CN(Cc1c(F)cccc1Cl)C(=O)c1ccc(COc2ccccc2)cc1
→ -2	7	100*	97*	-2	-3	?
- COc1ccc(C(=O)NCC(=O)NN=Cc2ccco2)cc1OC
→ 3	-5	8	3.9	·	·	·
- O=C(COC(=O)c1ccc[nH]c1=O)NC1CCCCC1
→ 2	-2	2	1.2	-14	-16	4318
- CCN(CC)c1ccc(C(=O)OCC(=O)N(C(C)C)C(C)C)cc1
→ 4	5	13	8.1	-33	11	2151
- O=S(=O)(O)c1cc(O)c2cc(Nc3ccccc3)ccc2c1
→ 5	10	-13	5.4	-12	·	3939
- Cc1ccc(C)c(C=Nn2cc(-c3ccccc3)[nH]c2=S)c1
→ 6	-3	9	0.8	·	·	·
- Cc1ccc(C(=O)Nc2nncs2)cc1S(=O)(=O)N1CCOCC1
→ 8	7	1	5.1	-7	3	3770
- O=C(CN1CCN(c2ccccc2Cl)CC1)NC1CCCc2ccccc21 (stereo not given)
→ -10	7	-5	-9.5	-18	-3	9440
- Cc1ccc2c(CSc3nnc(C4CC4)n3N)cc(=O)oc2c1C
→ 10	12	2	1.5	-28	-5	3681
- Nc1nc(-c2ccccn2)nc(N)c1Cc1c(F)cccc1Cl
→ 14	15	-6	5.1	-8	6	4380
- O=C(O)CCN1C(=O)CC(N2C(=O)/C(=C/c3ccc(Cl)cc3)SC2=S)C1=O (stereo not given)
→ -1	-2	2	9.9	-19	-8	2605
- Cc1ccc(NC(=S)N2C3CCCC2CC(NC(=O)C2CC2)C3)cc1C (stereo not given)
→ 9	-7	3	0.7	4	2	5691
- CCC(=O)N1N=C(c2c(-c3ccccc3)c3cc(Cl)ccc3[nH]c2=O)CC1c1ccco1 (stereo not given)
→ -1	2	-17	-2.6	-6	2	3070
- Cc1cc(C)c(C)c(S(=O)(=O)Nc2ccc3cn[nH]c3c2)c1C
→ -1	6	2	9.1	-10	·	3676
- O=C(Nc1ccc([N+](=O)[O-])cc1)c1cc2ccccc2nc1Cl
→ 3	6	6	5.4	-37	7	4950
- Cc1nc2ccc(S(=O)(=O)N(C)CC(=O)N3CCc4ccccc4C3)cc2s1
→ 7	8	3	8.9	-2	-6	2445
- CCOC(=O)Cc1csc(NC(=O)c2ccc(S(=O)(=O)N3CCCC3)cc2)n1
→ -2	3	3	0.8	-15	-3	11342
- O=C(COC(=O)c1cc(=O)[nH]c2ccccc12)NC(=O)NC1CCCCC1
→ 9	10	0	3.8	-16	1	4272
- CCCOc1ccc(-c2c(=O)n(OCC(=O)OCC)c3ccccc3[n+]2[O-])cc1
→ -4	5	-1	11	-29	-2	3835
- O=c1oc(CCO)cc2ccc(Br)cc12
→ 5	3	7	5.8	-16	·	2951
- COc1ccc(C(=O)CN(Cc2ccccc2)C2=NCCS2)cc1
→ 1	-6	9	4.2	-5	-10	2542
- CNc1ccccc1C(=O)OCC(=O)c1ccccc1
→ 10	13	-10	8.1	-25	-9	3703
- CC(=O)c1cc(C#N)c(SCC(=O)C(C)(C)C)nc1C
→ 9	-2	37	4.7	-31	-5	10739
- O=C(c1ccc(Br)cc1)C(CN1CCOCC1)c1ccccc1 (stereo not given)
→ 2	14	100*	93*	-3	22	3657
- CCCCCCOC(=O)c1ccc(OC(=O)c2cccnc2)cc1
→ -8	-8	38	9.5	-91	5	6036
- Cc1ccccc1Cn1cnc2c(NS(C)(=O)=O)c(C)c(C)cc21
→ 13	16	3	1.2	3	2	6578
- COc1ccc(C(=O)N2CCN(c3nnnn3-c3ccccc3)CC2)cc1OC
→ 5	11	1	2.9	-15	-8	23177*
- COc1ccc(Nc2cc(C)nc(N3CCOCC3)n2)cc1
→ ·	·	-5	-4.0	-5	·	3151
- CCOC(=O)c1cc(-c2ccccc2)n(CCC(=O)O)c1C
→ 11	4	7	8.2	-36	-1	10784

New compounds follow:
Second line of a record: Mtb hypoxia inh growth	Mtb hypoxia inh	Sa ugtP lethal	RN4220 kill	PrP UTR inh	BJeLR viability	Bead autofluor
- C=CCOc1ccc(Cl)cc1CNCCCN1CCOCC1
→ 10	4	0	-1.5	-1	-7	9379
- c1cncc(CNc2ncnc3ccc(-c4ccc5c(c4)OCO5)cc23)c1
→ 2	-1	5	11	10	·	4112
- COc1cc(S(=O)(=O)NCc2ccccn2)c(OC)cc1Cl
→ 9	-3	1	6.1	-20	5	4287
- Cc1ccc(S(=O)(=O)c2c(C)nn(C(C)(C)C)c2OC(=O)C(C)C)cc1
→ 3	-7	9	5.8	·	3	3847
- O=C(COC(=O)CCC(=O)c1ccc(F)cc1)Nc1ccc(Cl)cn1
→ 5	6	-4	6.6	-2	·	?
- CSc1sc(C)cc1C=NO
→ 9	3	-6	6.8	·	·	·
- COc1ccc(C=NNC(=O)c2nonc2C)cc1
→ 0	-3	-2	3.7	·	·	·
- COc1ccc(NC(=O)CSCC(=O)Nc2cccc(S(=O)(=O)N3CCCCCC3)c2)cc1
→ 11	5	0	2.5	-25	-1	6322
- CC(=O)C1=C(C)Nc2ncnn2C1c1cccc(Br)c1 (stereo not given)
→ 8	14	13	8.7	-5	0	3258
- CC(C)CCNC(=O)c1c(N)n(CC2CCCO2)c2nc3ccccc3nc12 (stereo not given)
→ 8	8	-7	-0.1	-11	7	8833
- O=c1cc(CO)oc(CN2CCN(Cc3ccccc3)CC2)c1O
→ ·	·	4	2.8	-15	30	5541
- CC(CC(=O)Nc1cccc(C(F)(F)F)c1)=NNC(=O)c1ccncc1
→ ·	·	2	4.5	·	·	·
- Cc1ccccc1C(=O)NC(=S)Nc1ccc(S(=O)(=O)N(C)c2ccccc2)cc1
→ ·	·	9	-1.6	-13	7	2157
- COc1cccc(C(=O)C2CCCN(Cc3cccc(-n4cccn4)c3)C2)c1 (stereo not given)
→ 5	14	11	-0.6	-30	8	6073
- COc1cc(NC(=O)c2ccccc2-c2ccccc2)cc(OC)c1OC
→ -6	12	4	6.2	·	-15	·
- COc1ccc(/C(N)=N/OC(=O)/C=C/c2ccccc2)cc1
→ ·	·	·	·	-21	1	2098
- COC(=O)c1sccc1NC(=O)CC1C(=O)NCCN1C(=O)Nc1ccc(C(F)(F)F)cc1 (stereo not given)
→ -1	9	-8	-1.5	-18	-2	6500
- CCOC(=O)C1=C(CN2CCc3ccccc32)NC(=O)NC1c1cc(C)ccc1C (stereo not given)
→ 0	1	9	5.0	-10	0	23756*
